Screens as filed in PubChem BioAssay.
FGF22 binding – binders of recombinant human FGF22 by thermal shift; calls only at 9.99 µM; SYPRO orange fluorescence; percent of sucrose octasulfate shift, DMSO zero; AID 651658; 340,000 tested, 1.5% active;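 active = melting point raised past a set limit in the mean and every replicate; inconclusive = no clear call; three in four hits are not shown here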
Target sequence (Q9HCT0 whole entry, looked up): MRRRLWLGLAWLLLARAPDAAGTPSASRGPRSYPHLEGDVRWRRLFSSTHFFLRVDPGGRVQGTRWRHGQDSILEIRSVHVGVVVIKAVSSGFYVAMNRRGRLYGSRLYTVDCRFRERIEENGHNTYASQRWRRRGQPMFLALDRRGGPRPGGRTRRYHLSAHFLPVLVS
Ecoli rRNA inh – inhibitors of bacterial rRNA selective over humanized ribosomes. AID 720706. E. coli WT GFP vs humanized-ribosome RFP mutants, fluorescence, 24 h; active compounds read low; DMSO median 0, no signal -100. GFP signal change (wild-type ribosome), % (concentration not given with the values). 350,000 tested, 1.6% active;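 active = significant combined selectivity score with lowered wild-type GFP, culture density cut under 30%, mutant RFP and density less affected; inactive = any of these conditions unmet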; note: one replicate is shown; some compounds called inactive have numbers as strong as hits
MLL AF4-AF9 inh – inhibitors of human MLL-AF4/AF9 interaction; P42568; AlphaScreen, biotin-AF4 peptide binding to FLAG-AF9; inhibition, % at 10 µM; 350,000 tested, 0.47% active;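 active = every replicate reaching a set inhibition limit, whatever the replicate mean, cut at about 25% in these data; inconclusive = mean inhibition reaches that limit but some replicates miss it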;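 note: 0% = plate neutral control median and 100% = total signal loss; the record names both 10 and 1 µM as test concentration; the first replicate is given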
Target sequence (P42568 whole entry, looked up): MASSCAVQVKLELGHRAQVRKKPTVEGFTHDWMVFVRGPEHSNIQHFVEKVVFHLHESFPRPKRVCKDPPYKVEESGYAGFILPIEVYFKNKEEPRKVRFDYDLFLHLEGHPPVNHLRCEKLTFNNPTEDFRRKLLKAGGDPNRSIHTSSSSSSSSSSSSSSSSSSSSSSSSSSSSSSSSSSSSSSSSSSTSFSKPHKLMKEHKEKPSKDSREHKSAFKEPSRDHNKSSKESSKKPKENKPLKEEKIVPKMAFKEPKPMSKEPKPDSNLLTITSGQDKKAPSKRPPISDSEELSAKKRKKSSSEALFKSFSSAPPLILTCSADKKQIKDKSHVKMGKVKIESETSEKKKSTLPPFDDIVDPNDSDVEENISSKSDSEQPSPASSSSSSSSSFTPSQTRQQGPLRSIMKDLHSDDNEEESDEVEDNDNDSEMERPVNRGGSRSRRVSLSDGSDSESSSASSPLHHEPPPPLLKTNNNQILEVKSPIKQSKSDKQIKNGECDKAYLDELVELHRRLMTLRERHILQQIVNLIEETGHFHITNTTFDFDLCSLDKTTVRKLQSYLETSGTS
Ecoli rRNA inh OD600 – second read-out of Ecoli rRNA inh, no call of its own (marks repeat the call); OD600 change, %; measured here: OD600 growth;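 optical density of the mix in the first replicate; 0 = DMSO median and -100 = no signal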
Ecoli rRNA inh RFP – also measured in Ecoli rRNA inh; calls as there; RFP signal change, %; measured here: RFP humanized mutant strains;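 first replicate; 0 = DMSO median and -100 = no signal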
Active calls of the source: *; i = inactive; ? = inconclusive; nt = no result given; & = joins results of further samples.

SMILES	FGF22 binding	Ecoli rRNA inh	Ecoli rRNA inh OD600	Ecoli rRNA inh RFP	MLL AF4-AF9 inh
CO[C@@H](CN(C)S(=O)(=O)c1ccc(F)cc1)[C@@H](C)CN([C@@H](C)CO)S(=O)(=O)c1cccc(Cl)c1	i	-3	-30	2.6	1.4
O=C(N[C@@H](Cc1ccccc1)c1nc2ccccc2[nH]1)c1ccc([N+](=O)[O-])cc1	i	6	-7	-0.5	0.9
C[C@@H]1CN([C@H](C)CO)C(=O)c2cc(NC(=O)C3CC3)ccc2O[C@H]1CN(C)C(=O)Nc1ccc(C(F)(F)F)cc1	i	-7	5	-1.3	-3.0
COC(=O)[C@H](Cc1ccccc1)NS(=O)(=O)c1ccc(F)cc1Br	i	-32	-38	-9.2	-0.3
C[C@H]1CN([C@@H](C)CO)C(=O)Cc2cc(N(C)C)ccc2O[C@@H]1CN(C)Cc1ccc(-c2ccccc2)cc1	i	-28	-45	6.7	52*
C[C@@H]1CN([C@@H](C)CO)C(=O)Cc2cc(NS(=O)(=O)c3cccs3)ccc2O[C@@H]1CN(C)C(=O)Nc1ccc(C(F)(F)F)cc1	i	2	-3	-0.5	-0.7
C[C@H](CO)N1C[C@H](C)[C@H](CN(C)C(=O)Nc2ccc3c(c2)OCO3)Oc2c(NS(=O)(=O)c3ccc(Cl)cc3)cccc2C1=O	i	-12	-5	1.0	2.4
CC1(C(=O)NCc2ccc3c(c2)OCO3)CCN1C(=O)Cc1ccc(Cl)cc1Cl (centres undefined)	i	-18	-17	-5.0	-4.7
O=C(C[C@H]1C(=O)N(c2ccccc2)C[C@@H]1Cc1ccccc1)Nc1ccccc1	i	-8	4	4.6	-4.0
COc1ccc(NC(=O)Nc2ccc3c(c2)[C@@H]2C[C@H](CC(=O)NCc4ccccn4)O[C@H](CO)[C@@H]2O3)cc1	i	0	0	-1.8	-2.9
CCC(=O)N(C)C[C@@H]1Oc2cc(C#CCOC)ccc2S(=O)(=O)N([C@H](C)CO)C[C@H]1C	i	-1	-1	-3.0	-0.9
O=C(c1cc(C2CCCCN2S(=O)(=O)c2ccc(F)cc2F)on1)N1CCOCC1 (centres undefined)	i	-1	2	-1.0	0.4
COc1ccc(C(=O)N2C[C@H]3[C@@H](c4ccccc42)[C@H](CO)N3C(=O)NC(C)C)cc1	i	3	14	0.9	-0.9
CC=Cc1ccc2n(c1=O)C[C@H]1[C@H](CO)[C@@H](C(=O)NCc3ccc(F)cc3)[C@@H]2N1C (mixture of isomers)	i	2	7	0.0	3.9
C[C@@H]1CN([C@H](C)CO)C(=O)c2cc(NC(=O)CCC(F)(F)F)ccc2O[C@@H]1CN(C)Cc1ccc(Cl)c(Cl)c1	i	-13	-59	26	2.4
C[C@H]1CN([C@@H](C)CO)C(=O)c2cc(-c3cccnc3)cnc2O[C@@H]1CN(C)C(=O)C1CC1	i	7	7	-3.3	-2.2
O=S(=O)(N[C@@H]1CC[C@H](CCn2cc(-c3cccc(F)c3)nn2)O[C@H]1CO)c1ccccc1	i	-3	-3	1.5	-1.5
C[C@H]1CN([C@@H](C)CO)C(=O)c2cccc(NC(=O)C3CC3)c2O[C@H]1CN(C)S(C)(=O)=O	i	2	-3	0.1	0.0
CC(C)NC(=O)N(C)C[C@@H]1Oc2ccc(NS(=O)(=O)c3ccc(Cl)cc3)cc2CC(=O)N([C@@H](C)CO)C[C@@H]1C	i	-1	0	-1.0	36*
C/C=C/c1cnc2c(c1)C(=O)N([C@@H](C)CO)C[C@H](C)[C@@H](CN(C)S(=O)(=O)c1ccc(C)cc1)O2	i	-7&-3	-3&-2	1.1&-0.7	1.9&-4.6&-3.2
COc1ccc2c3c(n(C)c2c1)[C@@H](CO)N(C(=O)Nc1ccc(F)cc1)CC31CN(Cc2ccccc2F)C1	i	-21	-46	5.2	?
CCOC(=O)C1=CCN(S(=O)(=O)c2ccc(C)cc2)C1c1ccc(C(C)C)cc1 (centres undefined)	i	2	-5	2.6	-1.7
C[C@H](CO)N1C[C@H](C)[C@@H](CN(C)Cc2ccccn2)Oc2cc(C3=CCCCC3)ccc2S1(=O)=O	i	-22	-32	20	9.5
C[C@H]1CN([C@@H](C)CO)C(=O)c2cc(C#CC3CCCC3)cnc2O[C@H]1CN(C)C(=O)Nc1ccccc1	i	2	-7	-0.2	0.5
CCCC#Cc1ccc([C@@H]2[C@H](CO)N3CCCCN(Cc4ccncc4)C[C@@H]23)cc1	i	1	2	-2.0	7.4

Reformatted: results already given.
Each structure is followed by: FGF22 binding | Ecoli rRNA inh | Ecoli rRNA inh OD600 | Ecoli rRNA inh RFP | MLL AF4-AF9 inh
- CC=Cc1ccc2n(c1=O)C[C@H]1[C@H](CO)[C@@H](C(=O)NCc3ccc(F)cc3)[C@@H]2N1C (mixture of isomers)
    i | 2 | 7 | 0.0 | 3.9
- C[C@@H]1CN([C@H](C)CO)C(=O)c2cc(NC(=O)CCC(F)(F)F)ccc2O[C@@H]1CN(C)Cc1ccc(Cl)c(Cl)c1
    i | -13 | -59 | 26 | 2.4

Three structures out of the list, arranged by SMILES length, ascending:
SMILES	FGF22 binding	Ecoli rRNA inh	Ecoli rRNA inh OD600	Ecoli rRNA inh RFP	MLL AF4-AF9 inh
CC1(C(=O)NCc2ccc3c(c2)OCO3)CCN1C(=O)Cc1ccc(Cl)cc1Cl (centres undefined)	i	-18	-17	-5.0	-4.7
O=C(N[C@@H](Cc1ccccc1)c1nc2ccccc2[nH]1)c1ccc([N+](=O)[O-])cc1	i	6	-7	-0.5	0.9
C[C@@H]1CN([C@H](C)CO)C(=O)c2cc(NC(=O)CCC(F)(F)F)ccc2O[C@@H]1CN(C)Cc1ccc(Cl)c(Cl)c1	i	-13	-59	26	2.4

Additional results.
SMILES	FGF22 binding	Ecoli rRNA inh	Ecoli rRNA inh OD600	Ecoli rRNA inh RFP	MLL AF4-AF9 inh
CC(C)NC(=O)N(C)C[C@@H]1Oc2ccc(NS(=O)(=O)c3ccc(Cl)cc3)cc2C(=O)N([C@@H](C)CO)C[C@@H]1C	i	-2	-7	1.1	-0.8
CN1CCN(C(=O)C[C@H]2CC[C@@H]3[C@H](COC[C@@H](O)CN3C(=O)C3CCCC3)O2)CC1	i	7	14	11	-0.7
COc1ccc(CN(C)C[C@@H]2Oc3ccc(NC(=O)CCC(F)(F)F)cc3CC(=O)N([C@H](C)CO)C[C@H]2C)cc1	i	-2	-4	1.0	-21
O=C(COC(=O)c1cccc(F)c1)NC(=O)NC1CCCC1	i	-5	-4	2.6	0.7
O=C(NCc1ccco1)Nc1nnc([C@H]2C[C@H](O)[C@@H](CO)O2)s1	i	4	4	-0.8	-4.5
CC(=O)N1CC2(C1)[C@@H](c1ccccc1)[C@@H](CO)N2C(=O)Cc1ccccc1	i	-1	10	-1.7	-5.3
C[C@H]1CN([C@@H](C)CO)C(=O)Cc2cc(NS(=O)(=O)c3ccc(F)cc3)ccc2O[C@H]1CN(C)Cc1ccc(C(=O)O)cc1	i	3	5	-3.1	-2.6
C[C@H]1CN([C@@H](C)CO)S(=O)(=O)c2ccc(C#CC3CCCC3)cc2O[C@H]1CN(C)C(=O)C1CC1	i	-6	-34	23	-21
COc1ccc(NC(=O)Nc2ccc3c(c2)C(=O)N([C@H](C)CO)C[C@@H](C)[C@H](CN(C)Cc2ccccc2)OCCCC[C@@H](C)O3)cc1	i	3	-10	18	15
C[C@H](NC(=O)c1[nH]cnc1C(=O)Nc1ccccc1F)c1ccccc1	nt	0	1	4.9	1.3
Cc1noc(C)c1S(=O)(=O)Nc1ccc2c(c1)C(=O)N([C@@H](C)CO)C[C@@H](C)[C@@H](CN(C)C(=O)Nc1ccc3c(c1)OCO3)OCCCC[C@H](C)O2	i	0	-19	0.0	5.1
CC1(C(=O)Nc2ccc3c(c2)OCCO3)CCN1C(=O)Cc1ccc(-c2ccccc2)cc1 (centres undefined)	i	-3	-13	3.8	-8.7
COCOCCn1cc(CN2CCS(=O)(=O)N(Cc3ccc(-c4ccc(OC)c(OC)c4)cc3)C(CC(C)C)C2=O)nn1 (centres undefined)	i	-7	-14	-0.8	2.8
COCC(=O)Nc1ccc2c(c1)C(=O)N(C)C[C@@H](OC)[C@H](C)CN(C(=O)C1CCCC1)[C@@H](C)CO2	i	-1	5	-0.7	-2.7
C[C@@H]1CN([C@@H](C)CO)C(=O)Cc2cc(NC(=O)C3CCCCC3)ccc2O[C@H]1CN(C)Cc1ccc(Cl)c(Cl)c1	i	3	1	3.0	-0.4
C[C@@H]1CCCCO[C@@H](CN(C)S(=O)(=O)c2cccs2)[C@@H](C)CN([C@@H](C)CO)C(=O)c2cc(NC(=O)CCC(F)(F)F)ccc2O1	i	0	7	-1.2	-0.7
CCNC(=O)C[C@H]1CC[C@H](NS(=O)(=O)c2ccc(F)cc2)[C@H](CO)O1	i	2	17	0.1	-0.5
CC(=O)N1[C@@H]2Cn3c(ccc(C4=CCCCC4)c3=O)[C@H]1[C@@H](C(=O)N[C@H](C)c1ccccc1)[C@@H]2CO	i	-4	-6	1.6	-1.0
CSc1ccc(-c2ccc3c(c2)c(Sc2ccccc2)c(-c2ccccc2)n3C)cc1	i	11	12	-2.8	-2.4
COC(=O)[C@]12C[C@H](CC(=O)NCC3CCCCC3)C(=O)N(Cc3ccc4c(c3)OCO4)C1=C[C@H](C(C)(C)C)O[C@@H]2C	i	18	-5	-0.2	0.7
CCN1[C@@H]2Cn3c(ccc(-c4ccccc4F)c3=O)[C@H]1[C@@H](C(=O)N1CCCCC1)[C@@H]2CO	i	0	8	-6.2	-1.7
CO[C@@H]1CN(C)C(=O)c2ccc(NS(C)(=O)=O)cc2OC[C@H](C)N(C(=O)C2CC2)C[C@@H]1C	i	1	-2	-0.4	-1.3
COc1ccc(NC(=O)N(C)C[C@@H]2OCCCC[C@@H](C)Oc3ccc(N(C)C)cc3C(=O)N([C@@H](C)CO)C[C@@H]2C)cc1	i	0	-3	-0.8	1.4
COc1cccc(NC(=O)c2ccc3nc(C)c(N(C)Cc4ccc(NC(C)=O)cc4)n3c2)c1	i	-12	-9	2.1	3.1
Cc1noc(C)c1NC(=O)N(C)C[C@@H]1Oc2ncc(/C=C/c3ccccc3)cc2C(=O)N([C@H](C)CO)C[C@@H]1C	i	3	8	0.9	3.9

Among those listed so far, two have an NH in an aromatic ring.
SMILES	FGF22 binding	Ecoli rRNA inh	Ecoli rRNA inh OD600	Ecoli rRNA inh RFP	MLL AF4-AF9 inh
O=C(N[C@@H](Cc1ccccc1)c1nc2ccccc2[nH]1)c1ccc([N+](=O)[O-])cc1	i	6	-7	-0.5	0.9
C[C@H](NC(=O)c1[nH]cnc1C(=O)Nc1ccccc1F)c1ccccc1	nt	0	1	4.9	1.3

Next section
SMILES	FGF22 binding	Ecoli rRNA inh	Ecoli rRNA inh OD600	Ecoli rRNA inh RFP	MLL AF4-AF9 inh
Cc1ccc(S(=O)(=O)Nc2ccc3c(c2)C(=O)N([C@H](C)CO)C[C@@H](C)[C@H](CN(C)S(=O)(=O)c2ccc(C)cc2)OCCCC[C@H](C)O3)cc1	i	3	13	0.4	-6.6
CO[C@H]1CN(C)C(=O)c2ccc(NC(=O)C3CCCCC3)cc2OC[C@H](C)N(Cc2nccs2)C[C@@H]1C	i	-9	-6	0.5	1.6
O=C(C[C@@H]1C=C[C@@H](NC(=O)Nc2cccc(F)c2)[C@H](CO)O1)NCC1CC1	i	0	-13	-0.7	-0.3
C[C@H](CO)N1C[C@H](C)[C@@H](CN(C)CC2CC2)Oc2c(NC(=O)Nc3ccc(C(F)(F)F)cc3)cccc2C1=O	i	-8	-52	22	-0.3
C[C@H](CO)N1C[C@H](C)[C@H](CN(C)S(=O)(=O)c2cn(C)cn2)Oc2ncc(C3=CCCC3)cc2C1=O	i	3	3	1.8	-5.1
Cc1cccc(S(=O)(=O)N2C[C@@H]3[C@H](c4ccccc42)[C@H](CO)N3CC2CCCC2)c1	i	-52	-76	-15	2.7
COc1ccc(OC)c(C(=O)NC2CCCc3c2cnn3-c2cc(C)cc(C)c2)c1 (centres undefined)	i	-2	-6	-3.2	3.3
C[C@H](CO)N1C[C@H](C)[C@@H](CN(C)C(=O)c2cccnc2)Oc2cc(C#CC3(O)CCCC3)ccc2S1(=O)=O	i	2	5	-3.5	-1.9
CO[C@@H]1CN(C)C(=O)c2ccc(NS(=O)(=O)c3ccc(C)cc3)cc2OC[C@@H](C)N(Cc2nccs2)C[C@@H]1C	i	-7	-5	5.0	0.3
C[C@H](CO)N1C[C@H](C)[C@@H](CN(C)Cc2ccc(-c3ccccc3)cc2)Oc2ccc(NC(=O)NC3CCCCC3)cc2CC1=O	i	-3	2	4.3	1.4
Cc1cc(C)cc(C(O)c2ncc(-c3ccccc3F)[nH]2)c1 (centres undefined)	i	5	-38	15	2.4
CNC[C@H]1Oc2cc(C#CC3CCCC3)ccc2S(=O)(=O)N([C@H](C)CO)C[C@@H]1C	i	6	3	7.6	-5.3
Nc1[nH]c(C(=O)c2ccccc2)c(-c2ccncc2)c1C(=O)NCCc1c[nH]c2ccccc12	i	-34	-49	-9.9	16
C[C@@H]1CCCCO[C@@H](CN(C)Cc2ccc(C(F)(F)F)cc2)[C@@H](C)CN([C@H](C)CO)C(=O)c2cc(NS(=O)(=O)c3cn(C)cn3)ccc2O1	i	0	7	-2.2	-2.9

This is a subset; count on the stated rates, not on these rows.
